Screens from PubChem.
HCMV UL50-53 inh – disrupts HCMV UL50-UL53 complex binding; HTRF UL50-UL53 interaction, normalized percent inhibition; inhibition, % (test concentration not listed); 190,000 compounds, 0.15% hits;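 active means both replicates at 50% or more, plus weaker picks with an unusually low signal ratio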;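 further: stock transfer was 100 nL into about 20 µL; 0% = negative control wells and 100% = wells with untagged competitor protein; inactives centre near -12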
Sa growth inh – blocks Staphylococcus aureus growth; S. aureus RN4220 growth, OD600, 20 h, 42 °C; active compounds read low; 170,000 compounds, 0.53% hits; relative growth, % (concentration not given with the values);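 active means growth at 42 °C up to 50% and 20 or more points under that at 30 °C, or under 10% at both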;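 further: 300 nL library stock went into each well; scaled to the means of positive and negative controls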
GIV Gai3 FP – inhibitors of GIV GBA-motif binding to rat Galpha-i3 | Galpha-i3/FITC-GIV peptide fluorescence polarization, 90 min; active compounds read low; scaled: aluminum fluoride 0%, vehicle 100% | percent of control (FP), % (concentration not given with the values) | 210,000 compounds, 0.42% hits;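 active means replicate mean at 85% of control or lower, very high polarization wells dropped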;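 further: wells of about 15 µL received 100 nL stock; the first replicate is given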
Target sequence (P08753 whole entry, looked up): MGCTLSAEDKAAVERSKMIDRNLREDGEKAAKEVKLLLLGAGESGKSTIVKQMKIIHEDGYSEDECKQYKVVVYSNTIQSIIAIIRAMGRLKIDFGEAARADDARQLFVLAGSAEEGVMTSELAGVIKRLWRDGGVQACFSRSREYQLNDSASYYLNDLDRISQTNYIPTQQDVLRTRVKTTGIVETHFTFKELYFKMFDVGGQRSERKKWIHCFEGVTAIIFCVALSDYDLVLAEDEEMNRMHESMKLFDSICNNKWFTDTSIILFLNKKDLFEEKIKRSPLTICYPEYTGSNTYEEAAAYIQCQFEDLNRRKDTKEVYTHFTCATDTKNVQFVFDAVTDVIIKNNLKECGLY
Sa growth inh second temp – also measured in Sa growth inh; calls as there; relative growth, %; measured here: growth at 30 °C;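 optical density after 20 h as mean of two plates; 100% = untreated growth and lower means inhibition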
Active calls of the source: *; . = not tested or not shown; & = joins results of further samples; ! = repeats disagree.

entry	SMILES	Sa growth inh	HCMV UL50-53 inh	GIV Gai3 FP	Sa growth inh second temp
1	O=C(c1c[nH]c2ccccc2c1=O)N(c1ccccc1)c1ccccc1	88	-11	.	81
2	CCc1ccccc1NC(=O)CCn1c(=O)c2cccn2c2ccccc21	87	.	103	89
3	O=C(O)CCC(=O)n1ncc2ccccc21	84	.	101	82
4	CCc1ccccc1Nc1nc(N)nc(CNc2ccccc2)n1	118	-25	.	90
5	CCOC(=O)C1CCCN(Cc2cccc(C)c2)C1 (stereo not drawn)	109	-1	105	99
6	O=C(CCN1C(=O)C2C3C=CC(C3)C2C1=O)NCCc1ccccc1 (stereo not drawn)	102	-6	115	97
7	Cc1ccc(CNC(=O)c2ccc3c(c2)nc2n3CCOC2)cc1	95	.	103	88
8	Cc1cc2nc(COc3ccccc3NC(=O)COc3cccc(C)c3C)cc(=O)n2o1	.	-3	105	.
9	Cc1ccc2occ(-c3cc(-c4ccc(Cl)cc4)nc4c3COc3ccccc3-4)c(=O)c2c1	103	6	103	95
10	CCOC(=O)c1c(C)n(-c2ccc(C)c(C)c2)c2ccc(OC(=O)c3ccccc3)cc12	.	0	101	.
11	N#Cc1ccc(C(=O)NC2CCS(=O)(=O)C2)cc1 (stereo not drawn)	121	-4	.	95
12	CCOC(=O)C1(C(=O)OCC)C(c2ccccc2)CC(=O)CC1c1ccccc1 (stereo not drawn)	102	12	.	111
13	COc1ccc(-c2ocnc2C(=O)O)cc1	81	-12	108	92
14	CCNc1nc(=S)nc(NCC)[nH]1	62	5	106	50
15	Cc1noc(C)c1Cn1cnc2scc(-c3ccc(Br)cc3)c2c1=O	98	-25	.	88
16	C=CCc1cccc(CNc2cnc3ccccc3c2)c1O	94	-13	102	88
17	O=C(CSc1ccc(S(=O)(=O)N2CCCCC2)cn1)NCc1ccco1	95	12	.	70
18	CCSc1nc2sc3c(c2c2n[nH]c(=S)n12)CCCC3	88	.	113	68
19	Cc1nn(-c2ccc(Cl)cc2)c2nc(C(C)(C)C)cc(C(F)(F)F)c12	.	3	104	.
20	Cn1ccc(C(=O)N2CCCC2c2cccc(F)c2)n1 (stereo not drawn)	.	-1	100	.

Whole records as entered above. Values in the order: Sa growth inh, HCMV UL50-53 inh, GIV Gai3 FP, Sa growth inh second temp
CCOC(=O)c1c(C)n(-c2ccc(C)c(C)c2)c2ccc(OC(=O)c3ccccc3)cc12 is listed with ., 0, 101, .
CCc1ccccc1NC(=O)CCn1c(=O)c2cccn2c2ccccc21 is listed with 87, ., 103, 89
O=C(CSc1ccc(S(=O)(=O)N2CCCCC2)cn1)NCc1ccco1 is listed with 95, 12, ., 70
Cc1nn(-c2ccc(Cl)cc2)c2nc(C(C)(C)C)cc(C(F)(F)F)c12 is listed with ., 3, 104, .

Later entries.
entry	SMILES	Sa growth inh	HCMV UL50-53 inh	GIV Gai3 FP	Sa growth inh second temp
21	CC(C)OC(=O)c1cc(C(=O)O)c(C(=O)OC(C)C)cc1C(=O)O	107	-2	97	106
22	O=C(NCCc1ccccc1)C1COc2ccccc2C1 (stereo not drawn)	84	.	98	97
23	COc1ccc(NC(=O)C(=O)NCCc2csc3nc(-c4ccccc4C)nn23)cc1	95	.	104	90
24	CN1C(=O)c2cc(NC(=O)c3ccccc3Br)ccc2N2CCN=C12	.	-30	104	.
25	Cc1ccc(CN2CC(=O)N(c3ccc(C(C)(C)C)cc3)[C@@H]3CS(=O)(=O)C[C@@H]32)cc1	.	9	106	.
26	Cc1onc(-c2ccccc2)c1-c1ccnc(N)n1	106	-2	93	75
27	CCc1ccc(N(CC(=O)NCC2CCCO2)S(C)(=O)=O)cc1 (stereo not drawn)	111	-1	105	76
28	COc1cc(OC)c(NC(=O)NCCn2nnc3cc(S(=O)(=O)N(C)C)ccc32)cc1Cl	76	.	108	92
29	C=CCn1c(NCCO)nc2sc3c(c2c1=O)CCC3	108	13	110	88
30	Cc1c(C(=O)NCCN(C)C)oc2c1-c1nn(Cc3cccc(Cl)c3)cc1CC2	100	-18	102	87
31	COc1ccc(-c2nc(-c3ccc4c(c3)[nH]c(=O)n4C)no2)c(OC)c1	.	-14	102	.
32	O=C(O)c1ccc(CSc2ccccn2)cc1	77	9	.	88
33	Cc1ccc2[nH]cc(S(=O)(=O)c3ccc(C(C)C)cc3)c(=O)c2c1	.	-21	103	.
34	Cc1coc2c(Cl)cc(Cl)cc2c1=O	102	-27	103	91
35	Nc1cccc(CCc2nc3ccccc3[nH]2)c1	94	-36	99	84
36	S=c1[nH]nc(Cc2ccccc2)n1Cc1ccccc1	92&107	3&-15	101&104	78&83
37	COc1ccc(OC)c(NC(=O)c2ccccc2)c1	90	5	105	82
38	COC(=O)c1c(C)[nH]c(C)c1/C=N/O	112	4	100	82
39	COc1ccc(S(N)(=O)=O)cc1C(=O)OCC(=O)N1c2ccccc2NC(=O)C1(C)C	97	-10	.	95
40	Cc1ccc2cc(CCC(=O)O)c(=O)[nH]c2c1	103	-34	109	102

Additional compounds follow.
entry	SMILES	Sa growth inh	HCMV UL50-53 inh	GIV Gai3 FP	Sa growth inh second temp
41	COc1ccc(Nc2nc3c(S(=O)(=O)c4ccccc4)nnn3c3ccsc23)cc1OC	100	.	106	87
42	COc1ccc(OC)c(NC(=O)COCc2cc(-c3ccc(F)cc3)on2)c1	110	.	103	93
43	Cc1nc(-c2ccccc2)sc1C(=O)Oc1ccccc1N1CCOCC1	100	-7	106	86
44	O=C(c1cccc(Cl)c1Cl)N1CCOCC1	101	-2	103	109
45	Cc1cccc(OCC(=O)Nc2ccc(OCc3cc(=O)n4cc(C)ccc4n3)cc2)c1	94	.	99	86
46	COc1ccc(NC(=O)c2ccc3c(SCC(=O)O)c4c(nc3c2)CCCC4)c(OC)c1	105	-17	105	88
47	Cc1nc2ccccc2n1CCc1nc2c3ccccc3nc(SCc3ccc(C#N)cc3)n2n1	121	.	103	83
48	COc1ccc(NC(=O)Cn2c(=O)n(CCCCC(=O)NC(C)C)c(=O)c3ccccc32)cc1OC	.	-24	104	.
49	COc1ccc(Cn2nnnc2C(c2cccs2)N2CCOCC2)cc1 (stereo not drawn)	100	2	102	88
50	O=C(NCC1CCCO1)C1CCC(=O)N1Cc1ccc(F)cc1 (stereo not drawn)	108	-23	104	91
51	Cc1ccc(NC(=O)CN(C)C(=O)CSc2nccn2C)cc1	108	1	.	91
52	O=C(O)C(Cc1c[nH]c2ccccc12)N1C(=O)C2C3C=CC(C3)C2C1=O (stereo not drawn)	95	-15	104	91
53	CN(C)CCOc1ccc(/C(=C(/CCCl)c2ccccc2)c2ccccc2)cc1	7.1*!	-27&-42	94	2.0*!
54	Cc1cccc(-c2cc(NC(=O)c3ccccc3C)n(-c3ccccc3)n2)c1	95	.	97	90
55	CSCCC1COC(c2cccn2Cc2ccccc2)=N1 (stereo not drawn)	92	-7	97	101
56	CC1CN(C(=O)c2ccc(Cl)cc2)c2ccccc2NC1=O (stereo not drawn)	.	3	108	.
57	Cc1nn(-c2ccccc2)c(N2CCCC2)c1/C=N/NC(=O)C1CC1	98	-31	.	89
58	C=CCn1c(SC2CCCC2=O)nnc1-c1ccc(Cl)cc1 (stereo not drawn)	104	-12	.	94
59	CN(C)CCNC(=O)Cn1ncc2c(=O)oc3ccccc3c21	99	.	109	89
60	CN(Cc1ccccc1)S(=O)(=O)c1ccc(F)c(C(=O)Nc2cccc(Cl)c2Cl)c1	124	.	116	103

Further structures:
entry	SMILES	Sa growth inh	HCMV UL50-53 inh	GIV Gai3 FP	Sa growth inh second temp
61	Cc1ccc(/C=C/S(=O)(=O)NCC(=O)O)cc1	95	-33	.	92
62	Cc1ccc(CCNC(=O)c2c(C)oc3ncnc(N4CCOCC4)c23)cc1	93	.	108	99
63	COCCCNC(=O)Cn1cc(S(=O)(=O)c2ccc(Cl)cc2)c(=O)c2cc(OC)ccc21	.	-24	101	.
64	COc1ccc(S(=O)(=O)Nc2nc3ccccc3s2)cc1OC	101	.	97	90
65	N#Cc1ccc(C(=O)Nc2c(C(=O)c3cccs3)oc3ccccc23)cc1	85	-52	.	73
66	O=C1C2C3C=CC(C3)C2C(=O)N1CCCO (stereo not drawn)	83	5	97	93
67	Cc1nc(SCC(=O)O)c2c3c(sc2n1)CCCC3	99	.	111	80
68	O=C(NCCC1=CCCCC1)C1CCCN(C(=O)c2cc(-c3cccnc3)n[nH]2)C1 (stereo not drawn)	.	-15	104	.
69	Cc1nc(-c2ccc(F)cc2)sc1CCNC(=O)c1ccccc1C(F)(F)F	104	.	105	97
70	CC(c1nc2ccccc2c(=O)[nH]1)N(C)CCOc1ccc(Cl)cc1 (stereo not drawn)	110	8	.	98
71	O=C1c2ccccc2C(=O)C1C(c1ccccc1)C1C(=O)c2ccccc2C1=O	109	.	76*	76
72	Cc1cc(C)n2c(Nc3cccc(C(F)(F)F)c3)c(-c3ccsc3)nc2n1	105	-12	107	87
73	O=C(CC1SC(=O)NC1=O)Nc1cccc(C(F)(F)F)c1 (stereo not drawn)	81	.	112	76
74	Cc1cc(C)cc(-n2nnc(-c3nc(-c4ccccc4)no3)c2C)c1	.	-20	101	.
75	Cc1cc(NC(=O)c2ccc(Br)o2)cc(-c2nc3ccccc3o2)c1O	89	-16	102	101
76	COc1ccc(N2CC(C)(C)C2=O)cc1	.	-13	100	.
77	CC(OC(=O)c1ccc(O)cc1)C(=O)c1ccccc1 (stereo not drawn)	85	-16	.	94
78	O=C(c1ccc2c(c1)OCO2)c1cn(Cc2ccc(F)cc2)c2ccccc2c1=O	84	-51	99	67
79	Cc1ccsc1C(=O)Nc1cc(-c2noc(C3CC3)n2)sc1C	.	-11	109	.
80	O=C(CSc1cccc[n+]1[O-])NC(=O)c1ccc(OC(F)F)cc1	100	3	.	96

(more compounds)
entry	SMILES	Sa growth inh	HCMV UL50-53 inh	GIV Gai3 FP	Sa growth inh second temp
81	O=C(NCCc1ccccc1)c1cc(-c2ccccc2)c(N2CCOCC2)s1	94	.	104	93
82	CC(=O)N(C)CCc1ccc(C)[n+]([O-])c1	84	-13	.	85
83	CCn1ncc(Br)c1C(=O)NC1CCCCC1	114	1	102	87
84	CCOc1ccc(S(=O)(=O)N2CCN(c3c(C)cccc3C)CC2)c2ccccc12	104	-14	107	91
85	CSc1nc2nccc(NC(=O)c3cccc(C)c3)n2n1	96	2	113	94
86	Cc1ccc(Nc2ncc(C(=O)Nc3ccc4c(c3)OCCO4)c3ccccc23)cc1Cl	.	-12	101	.
87	COc1ccc(CCNC(=O)C2=C(C)C(=O)OC23CCCCC3)c(OC)c1	109	-27	105	96
88	Clc1ccc(CSc2nnc3n2CCN3c2ccccc2)cc1	.	-24	99	.
89	CCCCN1C(=O)CCC1(C)C(=O)NCCC(C)C (stereo not drawn)	.	-18	102	.
90	O=C(NCCc1csc(-c2cccnc2)n1)c1cccc(C(F)(F)F)c1	94	.	101	95
91	CC1(C)CS(=O)(=O)N(c2cccc(C(=O)NCCc3c[nH]c4ccccc34)c2)C1=O	.	1	104	.
92	Cc1nc(=S)[nH]c(C)c1CCC(=O)NCc1ccco1	78	-26	.	67
93	CC1(C)CC(=O)C2=C(C1)NCN(Cc1ccccc1)C2	100	-16	100	88
94	Cc1ccc(-n2ccnc(NCCc3ccc(S(N)(=O)=O)cc3)c2=O)cc1	107	-59	106	85
95	CCc1nnc2c3c(-c4ccccc4)csc3ncn12	99	-104	.	84
96	CCC(C)Nc1oc(-c2ccc(S(=O)(=O)N3CCC(C)CC3)cc2)nc1C#N (stereo not drawn)	.	-24	104	.
97	CCCN1C(=O)c2ccccc2CC1(C)C(=O)NC1CCCCC1 (stereo not drawn)	99	-32&-21	103&100	86
98	O=C(NC1CCN(Cc2ccccc2)CC1)c1ccc(Cn2c(=O)c3ccccc3n(Cc3ccccc3)c2=O)cc1	90	5	101	97
99	O=C(c1cccc2c1C(=O)N(C1CCCCC1)C2)N1CCN(c2ccc(F)cc2)CC1	104	.	100	97
100	CC(C)(C)C(=O)Nc1sccc1C#N	102	-1	108	92

(listing goes on)
entry	SMILES	Sa growth inh	HCMV UL50-53 inh	GIV Gai3 FP	Sa growth inh second temp
101	O=C(NCc1ccc(F)cc1)[C@H](CSCc1ccccc1)N1Cc2ccccc2C1=O	116	.	103	90
102	Cc1c2cnn(-c3ccccc3)c(=O)c2c(C)n1C(C)C(=O)NCCN1CCCC1 (stereo not drawn)	93	-9	105	91
103	CC(C)(CC(=O)N1CCN(c2ccccc2F)CC1)CC1=NS(=O)(=O)c2ccccc2N1	.	-27	103	.
104	CC(C)(O)C#Cc1ccc(C(=O)N2CCCC2C(=O)O)s1 (stereo not drawn)	78	-18	106	100
105	O=C(Nc1ccccc1)N1CCCCC1c1cccnc1 (stereo not drawn)	100	-2	94	96
106	CC1=C(C(N)=O)C(c2ccccc2Br)n2ncnc2N1 (stereo not drawn)	88	.	101	86
107	CC1(C(=O)NC2CCCCCC2)Cc2ccccc2C(=O)N1Cc1ccco1 (stereo not drawn)	92	.	103	94
108	Cc1cc(NC(=NC2CC2)c2ccccc2F)n(-c2ccccc2)n1	92	-35	.	90
109	O=C(Nc1ccccc1)N1CCSc2ncccc21	.	-1	99	.
110	CCOc1ccc(-c2nn(-c3ccccc3)cc2C2NC(=O)NC(C)=C2C(=O)OC(C)C)cc1C (stereo not drawn)	113	-32	109	88
111	CN(C1=NC(=O)/C(=C2/C(=O)N(C)c3ccccc32)S1)c1ccc(Cl)cc1	115	-21	105	93
112	CC1CCN(Cc2c(O)ccc3occ(C(=O)c4ccccc4)c23)CC1	104	.	103	91

Two records picked at random from the list so far:
entry	SMILES	Sa growth inh	HCMV UL50-53 inh	GIV Gai3 FP	Sa growth inh second temp
111	CN(C1=NC(=O)/C(=C2/C(=O)N(C)c3ccccc32)S1)c1ccc(Cl)cc1	115	-21	105	93
109	O=C(Nc1ccccc1)N1CCSc2ncccc21	.	-1	99	.
